Source: PubChem BioAssay
gsp antagonist: qHTS for Antagonists of gsp, the Etiologic Mutation Responsible for Fibrous Dysplasia/McCune-Albright Syndrome: qHTS; gsp-mutant cells, cAMP HTRF, 30 min; control for the full effect not named in the record; Potency, µM (top dose mostly 76.9 µM), for the others: top-dose activity change, negative = inhibition, most hits filed as inhibitors; 340,000 compounds, 0.4% hits; AID 624288, 2012; active = falling curve of any shape with a large fitted effect; inconclusive = falling curve, mostly with a smaller effect; inactive = flat or rising curve; cell line not stated here;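 further: intracellular cAMP measured with PDE inhibitor Ro 20-1724 present during compound exposure; potency means the concentration at half of the fitted maximal effect; on the % scale 0 is the no-effect control and ±100 the full control effect; nearly all actives have a fitted effect of over 65% in size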
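Cells, 2000/well, grown 16–24 h in DMEM 10% FBS with 0.5 mg/ml G418, then compounds plus […] (300 uM addition stock), 30 min at 37C. cAMP read by HTRF (cAMP-d2 and anti-cAMP antibody-K in lysis buffer) after 30 min RT.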
ClpP mod: qHTS Assay for Activators of ClpP. ATP-dependent Clp protease proteolytic subunit (Bacillus subtilis (strain 168)), P80244. purified B. subtilis ClpP, FRET peptide cleavage, 20 min. Potency, µM (doses to about 57.5 µM), without a hit: top-dose activity change, negative = active. 340,000 compounds, 1.9% hits. AID 651965, 2013; active = well fitted falling curve with a large enough effect; inconclusive = small, poorly fitted or top-dose-only effect; inactive = no such curve, though single readings can be large or run the other way; further: potency means the concentration at half of the fitted maximal effect; the source files actives as falling curves though it sought activators and does not explain the sign; nearly all actives have a fitted effect of over 65% in size; many hits overshoot -100%
Target sequence (P80244 whole entry, looked up): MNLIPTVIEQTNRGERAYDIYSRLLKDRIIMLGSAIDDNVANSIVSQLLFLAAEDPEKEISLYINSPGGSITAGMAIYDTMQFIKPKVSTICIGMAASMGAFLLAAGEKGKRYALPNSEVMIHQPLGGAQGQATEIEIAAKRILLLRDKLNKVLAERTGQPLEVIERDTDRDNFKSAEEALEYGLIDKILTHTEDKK
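Buffer: 100 mM Tris/HCl pH8, 100 mM KCl, 0.05% low protease BSA, 2.5% glycerol, 0.01% Tween-20. ClpP 10 microg/mL final; 20 min RT; delta FRET normalized to ADEP and DMSO controls.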
Menin MLL FP FL: qHTS Assay for Inhibitors Targeting the Menin-MLL Interaction in MLL Related Leukemias: Competition With Fluorescein Labeled MLL-derived Peptide. Fluorescence polarization, fluorescein-MLL peptide displacement from menin. FP activity change, % at 61.4 µM. 290,000 tested, under 10 active. AID 1766, 2009; inconclusive = falling polarisation curve, or a change in total fluorescence; inactive = total fluorescence flat and polarisation flat or rising; no compound was filed as active; the % refers to the polarisation; negative = inhibition;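 further: % of control where 0% means no effect; inhibitors lower the polarisation; unlabelled MLL peptide was the positive control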
Sfp inh: qHTS Assay for Inhibitors of Bacillus subtilis Sfp phosphopantetheinyl transferase (PPTase) | 4'-phosphopantetheinyl transferase ffp (Bacillus subtilis), Q9F4F7 | Biochemical Sfp PPTase activity, qHTS | Potency, µM, without a hit: max response, negative = inhibition, most hits filed as inhibitors | 310,000 compounds, 3.5% hits; active means well fitted inhibition curve with a large enough effect; inconclusive means small, poorly fitted or top-dose-only effect, or another doubt; inactive means no such curve, though single readings can be large or run the other way;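 further: the enzyme is Sfp with the accession as filed and its product quenches rhodamine fluorescence; potency means the concentration at half of the fitted maximal effect; 0% = enzyme reaction without inhibitor and -100% = no enzyme wells; top concentration of the series not given in the record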
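Fluorescence-quenching assay with 15 nM Sfp, 5 uM rhodamine-CoA and 12.5 uM BHQ-2-labelled ybbR peptide in pH 7.6 Hepes/MgCl2 buffer. Enzyme was pre-incubated with compound for 15 min at room temperature. Rate was taken from the 30-min fluorescence change (525/598 nm).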
D2 ag: Beta-Arrestin HTS for Positive Allosteric Modulators of the Human D2 Dopamine Receptor: Agonists | D(2) dopamine receptor (Homo sapiens), P14416 | DiscoveRx PathHunter D2 beta-arrestin, luminescence, 90 min; 100% = 57 uM dopamine signal | activation, % (test concentration not listed) | 360,000 compounds, 0.084% hits | AID 624465, 2012; in the data active = activation above about 40%; inconclusive = about 15% to 40%; inactive = below about 15%; further: compound concentration not given in the record; the text of the record calls up to 30% inactive
Target sequence (P14416 whole entry, looked up): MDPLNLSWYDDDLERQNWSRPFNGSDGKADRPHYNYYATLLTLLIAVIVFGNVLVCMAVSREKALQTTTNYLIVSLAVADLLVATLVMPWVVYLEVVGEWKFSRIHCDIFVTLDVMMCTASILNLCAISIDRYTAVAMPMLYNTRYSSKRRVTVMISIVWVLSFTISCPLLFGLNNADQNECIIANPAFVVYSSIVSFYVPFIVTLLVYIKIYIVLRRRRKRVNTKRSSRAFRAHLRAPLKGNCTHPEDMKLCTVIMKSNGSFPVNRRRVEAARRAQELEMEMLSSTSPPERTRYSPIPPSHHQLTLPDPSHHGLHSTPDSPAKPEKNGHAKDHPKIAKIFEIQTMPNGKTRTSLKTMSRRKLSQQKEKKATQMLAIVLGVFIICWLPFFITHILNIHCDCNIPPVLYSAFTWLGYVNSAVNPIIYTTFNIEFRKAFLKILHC
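DiscoveRx PathHunter D2 beta-arrestin cells (2,100/well) attached overnight, then compound-stimulated 90 min at 37 C in HBSS/10 mM HEPES/0.1% Tween-20 buffer; beta-galactosidase complementation read by luminescence after 1 h at ambient temperature. Dopamine 57 uM final (EC100) as control.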
PINK1 modulator: A Quantitative High throughput Screen to Identify Chemical Modulators of PINK1 Expression; Potency, µM (series often up to 76.6 µM), inactives show at the highest dose activation (PINK1 increase), actives largely listed as activators; PINK1 immunofluorescence, high-content cytometry, 24 h; AID 624263, 2012; 410,000 compounds, 0.2% hits; active = well fitted activation curve with a large enough effect; inconclusive = small, poorly fitted or top-dose-only effect; inactive = flat fitted curve, though single readings scatter; cell line not stated here;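 further: potency means the concentration at half of the fitted maximal effect; % of control where 0% means no effect; nearly all actives have a fitted effect of over 65% in size; a mitochondrial uncoupler was the plate control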
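PINK1 protein level read as immunofluorescence by microplate cytometer in a fixed, stained stable cell line after 24 h exposure to five compound concentrations, with CCCP as control.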
gsp ag: qHTS for Agonist of gsp, the Etiologic Mutation Responsible for Fibrous Dysplasia/McCune-Albright Syndrome: qHTS. gsp mutant cells, cAMP HTRF, 30 min; control for the full effect not named in the record. Potency, µM (highest dose often 76.9 µM), without a hit: at the top dose activation (cAMP increase), actives largely listed as activators. 340,000 compounds, 0.13% hits. AID 624287, 2012; active = well fitted activation curve with a large enough effect; inconclusive = small, poorly fitted or top-dose-only effect, or another doubt; inactive = no such curve, though single readings can be large or run the other way; cell line not stated here;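 further: phosphodiesterase inhibitor Ro 20-1724 added with compounds to block cAMP breakdown; potency means the concentration at half of the fitted maximal effect; nearly all actives have a fitted effect of over 60% in size; about a fifth of the inactives were tested at one dose only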
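Cells in DMEM/10% FBS with G418 were pretreated with compounds in DMSO plus […] (300 uM stock) for 30 min at 37C. cAMP was measured by HTRF (cAMP-d2 plus anti-cAMP antibody-K) after 30 min at room temperature.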
Active calls of the source: *; & = joins results of further samples; [ ] = remark or other dose.

For O=C(NCc1ccc2c(c1)OCO2)C1CC(=O)N(CCc2ccc(Cl)cc2)C1 (configuration not stated) the results were gsp antagonist 8%, ClpP mod 0.4%, Sfp inh -1%, D2 ag 2.0, PINK1 modulator 1.2% and gsp ag 0%[15.4 µM].
Screening O=C(CSc1nnnn1-c1ccccc1)NCc1cccs1 returned gsp antagonist -11%, ClpP mod -2.5%, Menin MLL FP FL -1.0, Sfp inh 16%, D2 ag -2.0, PINK1 modulator -0.9%[38.3 µM] and gsp ag 1%.
Screening O=C(Cc1csc(NC(=O)c2ccc(F)cc2)n1)NO returned gsp antagonist -6%, Menin MLL FP FL -1.8, Sfp inh -2%, D2 ag -0.1, PINK1 modulator 1.4% and gsp ag 1%[15.4 µM].
Screening COC(=O)c1cc2c(ccn2-c2ccc(F)cc2)n1CC(=O)N1CCN(C(=O)c2ccco2)CC1 returned gsp antagonist -25%, ClpP mod inconclusive, Menin MLL FP FL 7.6, Sfp inh 8%, D2 ag 0.6, PINK1 modulator 3.0% and gsp ag -26%.
For CC(=O)N1CCN(c2ccc(NC(=O)/C=C/c3ccccc3)cc2)CC1 the results were gsp antagonist -12%, Menin MLL FP FL -7.3, Sfp inh 13%, D2 ag 1.7, PINK1 modulator 3.8% and gsp ag inconclusive.
Screening O=C(CC(c1ccccc1)c1ccco1)Nc1nccs1 (configuration not stated) returned gsp antagonist -6%, ClpP mod 2.5%, Menin MLL FP FL 3.0, Sfp inh -21%, D2 ag -5.3, PINK1 modulator 6.4% and gsp ag 0%.
CC(C)[C@H]1COCCS(=O)(=O)N1Cc1ccc(Cl)cc1 was read as gsp antagonist 0%, ClpP mod 0.8%&2.5%, Menin MLL FP FL -9.7, Sfp inh -5%, D2 ag -0.2, PINK1 modulator 1.5% and gsp ag -60%[inhibitor].
`CC(C)Nc1ncnc2c1ncn2[C@H]1CN(Cc2ccncc2)C[C@@H](CO)O1` gave ClpP mod -0.8%, D2 ag 7.7 and PINK1 modulator 0.7%.
Screening COc1ccc(CC(N)c2csc(NC(=O)Cc3ccccc3)n2)cc1 (configuration not stated) returned ClpP mod -0.2%, D2 ag -3.3 and PINK1 modulator 1.3%.
For COCCCn1c(=S)[nH]c2ncccc2c1=O the results were gsp antagonist 12%, ClpP mod 0.7%, Menin MLL FP FL 1.4, Sfp inh 11%, D2 ag -2.1, PINK1 modulator -2.4% and gsp ag 15%.
Screening O=C(C1CCC(N2C(=O)C3CC=CCC3C2=O)CC1)N1CCCCC1 (configuration not stated) returned gsp antagonist 14%, ClpP mod -1.4%, Menin MLL FP FL 2.0, Sfp inh -3%, D2 ag -2.6, PINK1 modulator 0.3%[38.3 µM] and gsp ag -26%.
`CCOC(=O)C1=C(C)NC(=O)NC1c1ccc(OCC(=O)N2CCCCC2)cc1` (configuration not stated) gave gsp antagonist -4%, ClpP mod -2.2%, Menin MLL FP FL 3.2, Sfp inh 20%, D2 ag -1.5, PINK1 modulator 3.4% and gsp ag 0%.
For COc1ccc(C(=O)N/C(=C\c2ccccc2)C(=O)Nc2cccc(C(=O)O)c2)cc1 the results were gsp antagonist 0%, ClpP mod 1.9%, Menin MLL FP FL 0.2, Sfp inh -2%, D2 ag -0.6, PINK1 modulator 0.1% and gsp ag -29%.
For CCCCOc1ccc(C2C(C(=O)c3cccs3)=C(O)C(=O)N2CCN2CCOCC2)cc1 (configuration not stated) the results were gsp antagonist -10%, ClpP mod -0.2%, Menin MLL FP FL -9.9, Sfp inh -1%, D2 ag -6.3, PINK1 modulator -0.4% and gsp ag 13%.
`CCOc1ccccc1/C=N/Nc1nc(C)cc(=O)[nH]1` gave gsp antagonist -8%, ClpP mod -9.2%, Menin MLL FP FL 2.4, Sfp inh -10%, D2 ag -5.9, PINK1 modulator 9.2% and gsp ag -22%.
COC(=O)c1c(NC(=O)c2ccc(C)cc2)sc(Cc2ccccc2)c1C was read as gsp antagonist 0%, ClpP mod inconclusive, Menin MLL FP FL -2.8, Sfp inh -4%, D2 ag -6.4, PINK1 modulator 4.6% and gsp ag -27%.
Cc1cccc2cc(COC(=O)C3CCCO3)c(=O)[nH]c12 (configuration not stated) was read as gsp antagonist 5%, ClpP mod -28%, Menin MLL FP FL 1.4, Sfp inh -7%, D2 ag -3.6, PINK1 modulator -0.8% and gsp ag inconclusive.
c1ccc(-n2c3ccccc3c3ccccc32)cc1 was read as gsp antagonist -12%, Menin MLL FP FL -0.3, Sfp inh -6%, D2 ag -3.7, PINK1 modulator inconclusive and gsp ag 7%.
CCC(C)(C(=O)Nc1c(C)cccc1C)N(C)C(=O)c1ccc2ccccc2n1 (configuration not stated) was read as gsp antagonist 9%, ClpP mod 0.9%, Menin MLL FP FL 0.8, Sfp inh 19%, D2 ag -1.6, PINK1 modulator -0.9% and gsp ag -35%[inhibitor].
`CCCCNc1nc2ccccc2[nH]1` gave gsp antagonist 4%, ClpP mod 1.4%, Menin MLL FP FL -11, Sfp inh -4%, D2 ag -4.3, PINK1 modulator 2.1% and gsp ag -36%.
`O=C(Nc1ccc(S(=O)(=O)N2CCCCC2)cc1)C1CCCN(C(=O)c2ccc(Cl)cc2)C1` (configuration not stated) gave gsp antagonist -14%, ClpP mod 1.6%, Menin MLL FP FL -2.1, Sfp inh 6%, D2 ag 2.7, PINK1 modulator 1.0% and gsp ag -3%.
For CCc1ccc(NC(=O)CN(C)S(=O)(=O)c2ccc3[nH]c(=O)oc3c2)cc1 the results were gsp antagonist -3%, ClpP mod 0.2%, Sfp inh 15%, D2 ag 0.8, PINK1 modulator 1.7% and gsp ag 1%.
For O=C(CN1CCCCCCC1)N/N=C/c1ccc(F)cc1F the results were gsp antagonist 12%, ClpP mod -1.4%, Menin MLL FP FL 8.4, Sfp inh -2%, D2 ag 0.2, PINK1 modulator -1.5% and gsp ag -19%.
Cn1c(CN2CCCC2)nc2cc(NC(=O)C3CCCCC3)ccc21 was read as gsp antagonist 8%, ClpP mod -2.5%, Menin MLL FP FL 0.1, Sfp inh 23%, D2 ag -0.2, PINK1 modulator 1.2%[38.3 µM] and gsp ag 2%.
`C=CCn1c(C)cc(C(=O)Cn2c(C(C)O)nc3ccccc32)c1C` (configuration not stated) gave gsp antagonist -39%, ClpP mod 1.0%, Menin MLL FP FL -0.7, Sfp inh 0%, D2 ag 0.1, PINK1 modulator 4.1% and gsp ag -4%[15.4 µM].
`CCN(C(=O)CCS(=O)(=O)c1cccc2nsnc12)c1cccc(C)c1` gave gsp antagonist -1%, ClpP mod -1.4%, Menin MLL FP FL -1.2, Sfp inh 4%, D2 ag -3.5, PINK1 modulator 0.0%&-0.2% and gsp ag 1%[15.4 µM].
`NC(N)=N/N=C/c1ccc2cccc(OCc3ccccc3)c2n1` gave gsp antagonist 9%, ClpP mod -5.6%, Menin MLL FP FL -0.6, Sfp inh -19%, D2 ag -1.7, PINK1 modulator -1.1% and gsp ag -3%[15.4 µM].
Cc1cccc(NC(=O)C2CC(=O)n3ncnc3N2)c1 (configuration not stated) was read as gsp antagonist 8%, Menin MLL FP FL 0.6, Sfp inh 5%, D2 ag 0.4, PINK1 modulator 0.6% and gsp ag 16%[15.4 µM].
Screening COc1ccccc1N(CC(=O)N/N=C/c1c(O)ccc2ccccc12)S(C)(=O)=O returned gsp antagonist -17%, ClpP mod 0.6%, Menin MLL FP FL 12, Sfp inh 10%, D2 ag -4.0, PINK1 modulator 0.5% and gsp ag 0%.
For O=C(NCCCN1CCCC1=O)C(=O)Nc1cccc(F)c1 the results were gsp antagonist -11%, D2 ag -3.2, PINK1 modulator -1.4% and gsp ag 16%[15.4 µM].
For CCCNS(=O)(=O)c1ccc(OCC(=O)NCc2ccc3c(c2)OCO3)cc1 the results were gsp antagonist -16%, ClpP mod -0.5%, Menin MLL FP FL 1.9, Sfp inh 23%, D2 ag -3.5, PINK1 modulator -0.8% and gsp ag -27%.
For COc1ccc(C(=O)N/C(=C\c2ccco2)C(=O)NCc2ccco2)cc1 the results were gsp antagonist 0%, ClpP mod -2.5%, Sfp inh 6%, D2 ag 0.1, PINK1 modulator 0.6% and gsp ag inconclusive.
Screening CCOc1ccc(C(=O)NCc2ccccn2)cc1 returned gsp antagonist 3%, ClpP mod -3.4%, Menin MLL FP FL 2.5, Sfp inh -10%, D2 ag -3.9, PINK1 modulator -2.8%[38.3 µM] and gsp ag 11%.
O=[N+]([O-])c1ccc(-c2csc(N3CCCCCC3)n2)cc1 was read as gsp antagonist -10%, ClpP mod -2.5%, Menin MLL FP FL 5.9, Sfp inh -10%, D2 ag 6.6, PINK1 modulator 2.6% and gsp ag -10%[15.4 µM].
`Fc1cccc(Cl)c1CSc1ncn[nH]1` gave gsp antagonist 1%, ClpP mod 0.1%, Menin MLL FP FL 2.9, Sfp inh 8%, D2 ag -3.0, PINK1 modulator -1.8% and gsp ag -17%.

Molecules listed so far that have two or more sulfur atoms, in the order listed:
Screening O=C(CSc1nnnn1-c1ccccc1)NCc1cccs1 returned gsp antagonist -11%, ClpP mod -2.5%, Menin MLL FP FL -1.0, Sfp inh 16%, D2 ag -2.0, PINK1 modulator -0.9%[38.3 µM] and gsp ag 1%.
`CCN(C(=O)CCS(=O)(=O)c1cccc2nsnc12)c1cccc(C)c1` gave gsp antagonist -1%, ClpP mod -1.4%, Menin MLL FP FL -1.2, Sfp inh 4%, D2 ag -3.5, PINK1 modulator 0.0%&-0.2% and gsp ag 1%[15.4 µM].
